# UUG fidelity = modulators of start codon recognition fidelity in yeast. AID 602363. S. cerevisiae UUG-firefly luciferase reporter, luminescence/redox ratio. 0.13% of 350,000 active. activity score, % at 18.7 µM;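 active means replicate mean at a twofold rise or more, about +100% in these data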;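 further: firefly luciferase made from a UUG start codon reports start codon fidelity; reporter light over untreated wells divided by growth signal over untreated wells; some hits fall short of that in this replicate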
# eIF4H FP inh = inhibitors of RNA binding by human eIF4H. Q15056. eIF4H fluorescence polarization binding assay. inhibition, % at 35 µM. 0.94% of 290,000 active;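 active means 50% or more with normal probe brightness, or confirmed in later tests; inconclusive means above 50% with abnormal brightness, or retests that disagree; inactive means below 50% or failed in later tests; about a fifth of its hits are not listed in these tables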;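 further: calls also rest on retests at 20 µM and on dose response follow-up; 0% = protein and probe with vehicle and 100% = probe without protein; strong numbers were not always called active; many hits fall short of the cut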
# CSC inhib = blocks cancer stem cells; cancer stem cell-like cells viability, luminescence; inhibition, % at 7.5 µM; 1.1% of 300,000 active; AID 2717;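 active means mean at 75% or more and at least half the replicates too; inconclusive means mean and replicates disagree; tested in HMLE shEcad cells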;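 further: 0% = median of negative and 100% = median of positive control wells; the first replicate is given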
# HIV Env fusion = inhibitors of HIV Env-mediated cell fusion; HeLa-JRFL Env/CEM21 cell fusion, luciferase; inhibition, % at 12.3 µM; 1.1% of 360,000 active; AID 651610;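 active means mean replicate inhibition score of at least 50 and every replicate individually at or above 50; inconclusive means only one of the two criteria met; inactive means mean below 50 and not all replicates reaching 50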;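 further: 0% = plate neutral controls and 100% = maraviroc near 300 nM; one replicate is shown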
# MT1-MMP act inh = inhibitors of human MT1-MMP activation | P50281 | HT1080 RFP-PRO-GFP cells, GFP/RFP ratio fluorescence, overnight; percent of plate control window, DMSO zero | GFP/RFP ratio change, % at 20 µM | 0.061% of 360,000 active | AID 651647;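 active means GFP/RFP ratio change of at least 30% with cell ATP level not reduced by more than half and red fluorescence within 50% of control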; further: strong numbers were not always called active
#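 Assay system: HT1080 cells carrying an RFP-PRO-GFP reporter | Dosing: Single dose of 20 µM compound, 1% DMSO final | Incubation: Cells overnight before dosing, compound overnight, 37 °C, 5% CO2 | Evaluation: GFP/RFP fluorescence ratio | Control set: DMSO and RFP-L50D-GFP cell wells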
# Rce1 inhib = inhibitors of yeast Ras-converting enzyme; yeast membranes, quenched prenylated peptide cleavage fluorescence; calls only; 0.27% of 290,000 active; AID 2563;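 active means fall in fluorescence gain of 50% or more versus controls, with final raw signal at or below 3038400; inconclusive means same 50% fall but final raw signal above 3038400; inactive means fall in fluorescence gain under 50%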;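 further: plate controls were neutral control wells for no effect and wells lacking membranes for full effect; tested at 10 µM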
# Target sequence (Q03530 whole entry, looked up): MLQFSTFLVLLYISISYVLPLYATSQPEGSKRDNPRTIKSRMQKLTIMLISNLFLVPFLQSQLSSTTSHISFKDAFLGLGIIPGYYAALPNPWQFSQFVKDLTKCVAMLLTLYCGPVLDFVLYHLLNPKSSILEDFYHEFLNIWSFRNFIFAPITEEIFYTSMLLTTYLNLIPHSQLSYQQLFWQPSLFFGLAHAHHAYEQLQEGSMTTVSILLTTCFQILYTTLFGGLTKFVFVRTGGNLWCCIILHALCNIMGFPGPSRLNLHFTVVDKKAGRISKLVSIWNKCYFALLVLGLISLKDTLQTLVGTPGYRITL
# PABP polyA inh = PABP-poly(A) binding inhibition; P11940; PABP-poly(A) RNA binding, fluorescence polarization; inhibition, % at 35 µM; 1% of 290,000 active; AID 2014;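 active means 50% or more with normal probe brightness, or confirmed in later tests; inconclusive means above 50% with abnormal brightness, or retests that disagree; inactive means below 50% or failed in later tests; about a fifth of its hits are not listed in these tables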;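 further: calls also rest on retests at 20 µM and on dose response follow-up; controls were probe without protein and protein plus probe with vehicle; some compounds called inactive have numbers as strong as hits; many hits fall short of the cut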
# eIF4H FP inh retest = further read-out of eIF4H FP inh, marked with its call; inhibition, %; compound at 20 µM; confirmation average;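 mean of two retest wells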
# PABP polyA inh retest = recorded beside PABP polyA inh, whose call it bears; inhibition, %; compound at 20 µM; confirmation repeats;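 mean of two retest wells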
# MT1-MMP act inh RFP = second read-out of MT1-MMP act inh, no call of its own (marks repeat the call); RFP signal change, %; measured here: RFP expression control read;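 0 = vehicle wells; hits needed this value within 50% of zero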
# * = called active by the depositor; i = inactive; ? = inconclusive; / = no result given.
# The first 6 entries as a preview:
SMILES,UUG fidelity,eIF4H FP inh,CSC inhib,HIV Env fusion,MT1-MMP act inh,MT1-MMP act inh RFP,Rce1 inhib,PABP polyA inh,others
CCOC(=O)C1CCC/C1=N\NC(=O)CN(c1cc(OC)ccc1OC)S(=O)(=O)c1ccccc1 (stereo not drawn),-14,-4,-15,-10,-4,-4,i,-6,
C[C@H](NC(=O)OCc1ccccc1)C(=O)NNC(=O)[C@H](C)NC(=O)OCc1ccccc1,-14,4,-6,-8,5,5,i,-9,
CC(C)c1ccccc1NC(=O)c1ccccc1NC(=O)C1CCCCC1,/,92,6,15,1,2,i,-4,eIF4H FP inh retest=-4;PABP polyA inh retest=-2
Cc1ccc(Cn2c(=O)c3c(nc4n3CCCN4Cc3ccccc3)n(C)c2=O)cc1,-9,1,7,/,4,-9,i,9,
COC(=O)c1ccccc1OCCN1CCCCCC1,/,11,/,4,-1,5,i,23,
N=c1c(S(=O)(=O)c2ccc(Br)cc2)cc2c(=O)n3ccccc3nc2n1C1CCCC1,8,13,10,15,1,-4,i,14,

# The listing, previewed entries included:
SMILES,UUG fidelity,eIF4H FP inh,CSC inhib,HIV Env fusion,MT1-MMP act inh,MT1-MMP act inh RFP,Rce1 inhib,PABP polyA inh,others
CCOC(=O)C1CCC/C1=N\NC(=O)CN(c1cc(OC)ccc1OC)S(=O)(=O)c1ccccc1 (stereo not drawn),-14,-4,-15,-10,-4,-4,i,-6,
C[C@H](NC(=O)OCc1ccccc1)C(=O)NNC(=O)[C@H](C)NC(=O)OCc1ccccc1,-14,4,-6,-8,5,5,i,-9,
CC(C)c1ccccc1NC(=O)c1ccccc1NC(=O)C1CCCCC1,/,92,6,15,1,2,i,-4,eIF4H FP inh retest=-4;PABP polyA inh retest=-2
Cc1ccc(Cn2c(=O)c3c(nc4n3CCCN4Cc3ccccc3)n(C)c2=O)cc1,-9,1,7,/,4,-9,i,9,
COC(=O)c1ccccc1OCCN1CCCCCC1,/,11,/,4,-1,5,i,23,
N=c1c(S(=O)(=O)c2ccc(Br)cc2)cc2c(=O)n3ccccc3nc2n1C1CCCC1,8,13,10,15,1,-4,i,14,
CCCS(=O)(=O)NCc1ccc2c(c1)cc(C)n2C,/,41,-13,/,34*,26*,i,-4,
O=C(NCCc1cn2ccsc2n1)c1cccs1,-12,13,-2,11,1,7,i,9,
CCN(CC)C(=O)Cn1cc(S(=O)(=O)CC(=O)Nc2cc(C)on2)c2ccccc21,-4,-5,-12,13,1,6,i,0,
Cc1ccc(S(=O)(=O)N/N=C/C(C)(C)CO)cc1,/,-10,-5,/,-2,0,i,-4,
O=C(N/N=C/c1cccc(F)c1)c1csc2c1CCCC2,-24,-2,-10,/,0,-1,i,-3,
C=C(CC[C@@H](O)C(C)(C)O)[C@H]1CC[C@]2(C)[C@@H]1CCC1[C@@]3(C)CC[C@H](O)C(C)(C)C3CC[C@]12C (stereo partly drawn),-19,/,?,2,5,0,/,/,
COCc1cc(=O)oc2cc(NS(=O)(=O)c3ccc(C)cc3)ccc12,-17,-10,-2,-8,2,-3,i,4,
Cc1cccc(-c2noc(CN(C(=O)CCc3ccccc3)C(C)C)n2)c1,-8,8,13,/,1,1,i,10,
CN(C)c1ccc(/C=N/NC(=O)c2ccc(CN3CCOCC3)cc2)cc1Br,/,-10,-10,34,3,-5,i,7,
COc1ccc(CCNC(=S)Nc2cc(C)cc(C)c2)cc1,-12,3,12,/,4,2,i,-14,
Brc1ccc(C[n+]2ccccc2)cc1,-5,/,-14,-2,2,-5,i,/,
COc1ccccc1C(=O)NCC(=O)N/N=C/c1cc(Br)ccc1OC(=O)/C=C\c1ccco1,/,86,8,-8,0,-2,i,-11,eIF4H FP inh retest=-11;PABP polyA inh retest=12
CCOC(=O)C(=O)NC(C)CCc1ccccc1 (stereo not drawn),8,-2,18,15,-3,2,i,6,
Cc1ccc(-c2nc3sc(C(N)=O)c(N)c3c3c2CCCC3)cc1,/,7,18,/,0,3,i,-4,
CCCCN(C)C(=O)c1cn(CC)c2nc(C)ccc2c1=O,-19,-5,-5,12,-3,1,i,-10,
CC1OC(Nc2cccc3ccccc23)C(O)C(O)C1O (stereo not drawn),-8,12,52,/,7,14,i,19,
Cc1cc(C)cc(Oc2coc3cc(OC(=O)c4cccs4)ccc3c2=O)c1,-18,-10,1,/,0,-1,i,-16,
Cc1cccc(CN2CCN(C3CN(Cc4ccc(F)cc4)S(=O)(=O)C3)CC2)c1 (stereo not drawn),-11,/,/,-85,7,-2,/,/,
CS(=O)(=O)N1CCC(c2noc(-c3ccc(C(F)(F)F)cc3)n2)CC1,-2,4,2,/,-2,-25,i,-14,

# An excerpt from above in order of formula weight, high to low.
SMILES,UUG fidelity,eIF4H FP inh,CSC inhib,HIV Env fusion,MT1-MMP act inh,MT1-MMP act inh RFP,Rce1 inhib,PABP polyA inh,others
N=c1c(S(=O)(=O)c2ccc(Br)cc2)cc2c(=O)n3ccccc3nc2n1C1CCCC1,8,13,10,15,1,-4,i,14,
CN(C)c1ccc(/C=N/NC(=O)c2ccc(CN3CCOCC3)cc2)cc1Br,/,-10,-10,34,3,-5,i,7,
Cc1cccc(CN2CCN(C3CN(Cc4ccc(F)cc4)S(=O)(=O)C3)CC2)c1 (stereo not drawn),-11,/,/,-85,7,-2,/,/,
O=C(NCCc1cn2ccsc2n1)c1cccs1,-12,13,-2,11,1,7,i,9,

# Next structures:
SMILES,UUG fidelity,eIF4H FP inh,CSC inhib,HIV Env fusion,MT1-MMP act inh,MT1-MMP act inh RFP,Rce1 inhib,PABP polyA inh,others
CC1(C)CC(NC(=O)c2ccc(Cl)cc2Cl)CC(C)(C)N1,-9,8,-9,-5,-2,-1,i,-8,
CCOC(=O)CN1C(=O)C(Sc2n[nH]c(-c3cccc(C)c3)n2)CCc2ccccc21 (stereo not drawn),-9,-2,15,14,-2,-13,i,0,
COc1cc(C2c3cc(O)c(OC)cc3CC(C(=O)O)C2CO)ccc1O (stereo not drawn),-4,/,/,-5,-1,4,/,/,
CCCn1c(=O)c(Cc2ccccc2)c(O)c2ccccc21,-10,5,-10,/,5,2,i,1,
O=C1C2CCCN2C(=S)N1c1ccc(Cl)cc1 (stereo not drawn),-10,0,-17,-3,-4,0,i,1,
O=C(Nc1ccc(N2CCN(C(=O)c3cccs3)CC2)cc1)c1ccc([N+](=O)[O-])o1,1,-14,100*,i,-12,-33,i,28,
Cc1ccc(-c2csc(C(O)c3ccc(F)c(F)c3)n2)cc1C (stereo not drawn),-14,/,/,-22,1,0,/,/,
COc1ccc(-n2cccc2/C=C/[N+](=O)[O-])cc1,-45,22,1,2,-4,-2,i,7,
COc1ccc(/C=C(/NC(=O)c2ccco2)C(=O)Nc2ccc(C(C)=O)cc2)cc1,/,4,-3,9,-6,-1,i,-6,
O=C(O)[C@@H]1CCCN1c1ncnc2sc3c(c12)CCC3,-16,2,20,/,4,1,i,6,
CCN1C(=O)[C@H]2[C@@H](c3ccc(C)cc3)N3C(=O)N(c4ccc(C(F)(F)F)cc4)C(=O)[C@@]3(Cc3ccccc3)[C@H]2C1=O,-10,0,-10,-70,2,-3,i,3,
COc1ccccc1CN(C)c1ccc(S(=O)(=O)N2CCN(C)CC2)cn1,-3,/,7,/,0,1,/,/,
CCN1CCN(C(=O)Cn2cnc3sc(C)c(S(=O)(=O)N4CCN(c5ncccn5)CC4)c3c2=O)CC1,/,8,-6,12,4,0,i,-16,
Cc1cc(C)cc(N(CC(=O)N/N=C/c2ccncc2)S(=O)(=O)c2ccccc2)c1,-14,0,-13,6,-8,-4,i,32,
N#CCC(=O)Nc1ccc(C(F)(F)F)cc1N1CCOCC1,/,-8,-1,-6,-3,1,i,0,
Cc1ccc(-n2nc3c(c2NC(=O)c2ccc4c(c2)OCO4)CS(=O)C3)c(C)c1 (stereo not drawn),1,/,-17,-4,1,2,i,/,
COc1cccc(Oc2cn[nH]c2-c2ccc(OC)cc2O)c1,-21,2,35,/,5,2,i,-11,
O=C(Nc1cccc(O)c1)C1CC(c2c(F)cccc2Cl)=NO1 (stereo not drawn),20,-1,-7,-12,1,0,i,-9,
O=C(O)CSc1nnnn1-c1ccc2c(c1)OCCO2,-10,-8,-15,34,-3,1,i,11,
Cc1cc(C)c(C)c(S(=O)(=O)N2CCNCC2)c1C,-3,-9,-3,-7,-15,-6,i,2,
C=C(C)COc1ccc(-c2nc(N)ncc2Oc2ccccc2OCC)c(O)c1,-15,-12,47,/,-8,-15,i,12,
CN1CCN(c2ccc(S(=O)(=O)N3CCOCC3)cc2NC(=O)COc2ccc(C#N)cc2)CC1,4,/,/,-1,-1,0,/,/,
C=CCNC(=O)c1ccc(N(CC=C)S(C)(=O)=O)cc1,-14,0,-2,3,-2,2,i,-4,
O=C(CCCOc1ccc(Cl)cc1Cl)Nc1nnc(C2CC2)s1,-5,0,-11,12,-3,4,i,-8,
O=C(CCSc1ccc(Cl)cc1)N1CCN(c2ncccn2)CC1,0,0,14,/,1,1,i,4,
# Next structures follow:
SMILES,UUG fidelity,eIF4H FP inh,CSC inhib,HIV Env fusion,MT1-MMP act inh,MT1-MMP act inh RFP,Rce1 inhib,PABP polyA inh,others
c1csc(-c2nc(N3CCOCC3)c3ccccc3n2)c1,-5,-6,13,31,-4,0,i,5,
CC1=NN(Cc2ccccc2)C(=O)C1,-1,0,6,5,-5,-2,i,-13,
O=S(=O)(c1cc(Cl)ccc1Cl)N1CCN(Cc2ccc3c(c2)OCO3)CC1,-7,6,11,-24,2,2,i,-1,
Cc1ccc(NC(=O)c2ccc(NCCCN3CCOCC3)c([N+](=O)[O-])c2)cc1Cl,/,-16,51,23,5,-4,i,-6,
CS(=O)(=O)N1CCCC(C(=O)NC2CCCCCCC2)C1 (stereo not drawn),-22,-3,/,/,-5,0,i,-2,
CCCNc1c(NC(=O)c2ccc3c(c2)OCO3)c(=O)oc2ccccc12,-7,-2,-9,-3,1,-2,i,0,
COC(=O)C(CC(C)C)NC(=O)/C=C/c1ccc(Cl)cc1 (stereo not drawn),/,-13,-3,17,-6,1,i,49,
COc1cc2[nH]c(=O)n(CCC(=O)NC3CCN(Cc4ccccc4)CC3)c(=O)c2cc1OC,-3,26,/,-10,6,2,i,8,
Cc1ccc(S(=O)(=O)N2C[C@H]3[C@H]4C(=O)N(Cc5ccccc5)C(=O)[C@H]4CC(=O)[C@H]3[C@@H]2c2ccccc2F)cc1,-7,/,/,?,-1,-1,/,/,

# Among those listed so far, these contain a cyano group:
SMILES,UUG fidelity,eIF4H FP inh,CSC inhib,HIV Env fusion,MT1-MMP act inh,MT1-MMP act inh RFP,Rce1 inhib,PABP polyA inh,others
N#CCC(=O)Nc1ccc(C(F)(F)F)cc1N1CCOCC1,/,-8,-1,-6,-3,1,i,0,
CN1CCN(c2ccc(S(=O)(=O)N3CCOCC3)cc2NC(=O)COc2ccc(C#N)cc2)CC1,4,/,/,-1,-1,0,/,/,
